Bioassay records: PubChem, several laboratories
Sa RN4220 lethal – growth inhibition of S. aureus RN4220, primary screen, OD600; 16 h; inhibition, % (no concentration beside the values); 330,000 tested, 0.33% active; AID 1259311, 2017;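 active = z-score of -3 or lower and OD600 up to 0.18 on both plates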;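 note: plate controls were untreated cells for no effect and reference antibiotic for full effect; stock transfer was 100 nL into about 80 µL; one replicate is shown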
BJeLR lethal – MLPCN primary cell-based screen for lethality selective to Ras in HRASV12 cells; 300,000 tested, 0.17% active; inhibition, % (no concentration beside the values); AID 1554, 2009; BJeLR (HRASV12) viability, CellTiter-Glo ATP luminescence, 48 h; reference of the scale not given here;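 active = replicate mean above 50%; inconclusive = above 50% but judged a plate artefact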;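 note: 50 nL library stock added to about 25 µL; numbers are from one replicate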
Sa ugtP lethal – growth inhibition of ugtP-null S. aureus, primary screen, RN4220 ugtP deletion, OD600; 330,000 tested, 0.54% active; growth inhibition, % (concentration not given with the values); 16 h; some inactives read as strong as hits;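 active = z-score under -3 and OD600 up to 0.15 on both plates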;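 note: plate controls were untreated wells for no effect and antibiotic for full effect; wells of about 80 µL received 100 nL stock; the first replicate is given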
Mtb hypoxia inh – PubChem AID 1159583; M. tuberculosis hypoxia-regulated fluorescent reporter, fluorescence; fluorescence inhibition, % (test concentration not listed); 300,000 tested, 0.1% active;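 active = 35 to 45% if threefold the growth effect, above 45% if 1.5-fold the growth effect; inactive = the rest, general growth blockers included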;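 note: wells of about 50 µL received 100 nL stock; 0% = vehicle wells and 100% = reference inhibitor wells; whole bacteria with a GFP reporter of the hypoxia response; strong numbers were not always called active; many hits fall short of the cut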
PrP 5UTR inh – inhibition of PrP 5' UTR reporter expression | cell-based PrP 5' UTR mRNA reporter, plate reader | inhibition, % (concentration not given with the values) | 340,000 tested, 0.35% active | AID 488862, 2010;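 active = every replicate at 50% or more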;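 note: 0 = median of the neutral control wells; tested in H4 reporter cells; numbers are from one replicate; inactives centre near -14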
Autofluor counter – flagged as autofluorescent in microsphere protease counterscreen; compound autofluorescence counterscreen, microsphere flow cytometry; stronger effect = higher value; fluorescence intensity (test concentration not listed); 360,000 tested, 3.1% active;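 active = at least 3 SD above the mean of all compounds, about 16000 in these data; inconclusive = too few beads counted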;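 note: 100 nL of 1 mM stock went into each well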
Mtb hypoxia inh growth – recorded beside Mtb hypoxia inh, whose call it bears; growth inhibition, %; measured here: M. tuberculosis growth (absorbance);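 0% = vehicle and 100% = reference antibiotic; read after six days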
Active calls of the source: *; ? = inconclusive; nt = no result given. Random draw from the library. About 4% of those tested had a hit in this group.

SMILES | Sa RN4220 lethal | BJeLR lethal | Sa ugtP lethal | Mtb hypoxia inh | Mtb hypoxia inh growth | PrP 5UTR inh | Autofluor counter
O=C(O)/C(=C1\OC(=O)c2ccccc21)c1ccccc1 | -0.4 | -5 | -1 | nt | nt | -22 | 2618
COc1ccc(CCC(=O)OCC(=O)N(CC(C)C)c2c(N)n(Cc3ccccc3)c(=O)[nH]c2=O)cc1 | 4.1 | -3 | 5 | 5 | -4 | -20 | ?
COc1cc(NC(=O)CSc2nc3ccccc3n2-c2ccccc2)c(C)cc1[N+](=O)[O-] | 0.9 | -4 | -7 | 1 | -1 | 5 | 2504
CCn1c(SC(C)C(=O)NC2CCCc3ccccc32)nnc1-c1cccs1 (centres undefined) | 9.6 | 13 | -4 | 5 | 6 | -22 | 2585
CCCCN(C)C(=O)c1c[nH]c2ccc(S(=O)(=O)N3CCOCC3)cc2c1=O | -0.3 | 1 | 8 | 12 | 3 | -18 | 6084
COc1ccccc1N1CCN(C(=O)CSc2nc(-c3ccco3)cc(C(F)(F)F)n2)CC1 | 1.6 | -4 | -20 | -3 | 6 | -22 | 10234
COc1cc(C2=NOC(C(=O)N3CCCc4ccccc43)C2)cc(OC)c1OC (centres undefined) | -3.6 | -7 | 2 | 9 | 2 | -8 | 15889
COc1ccc(CCN2CC(C(=O)OCc3ccccc3Cl)CC2=O)cc1OC (centres undefined) | 6.2 | nt | 13 | -12 | 1 | -23 | ?
C#CCOCCOCCOCCNc1nc(N2CCOCC2)nc(N2CCN(C(=O)C(C)n3cc(CCCN=C(N)N)nn3)CC2)n1 (centres undefined) | 4.5 | nt | -4 | 9 | 4 | nt | nt
COc1ccc(F)cc1C(=O)C1CCCN(C(=O)c2ccccc2N(C)C)C1 (centres undefined) | 1.9 | -7 | -3 | -6 | 6 | 3 | 5750
CC1CCC(C(=O)NNC(=O)c2cc(-c3ccco3)[nH]n2)CC1 (centres undefined) | 3.9 | 1 | 11 | 5 | 5 | -32 | 5479
N=c1sccn1CC(=O)Nc1cccc2ccccc12 | 6.2 | 1 | 2 | 5 | 4 | -9 | 2585
CCc1noc(C)c1C(=O)OCC(=O)Nc1ccc(F)cc1Cl | 1.9 | nt | -6 | -1 | 6 | -20 | 4377
O=C(NN=Cc1ccco1)c1ccccn1 | 2.3 | nt | -3 | 2 | 5 | nt | nt
Cc1ccc(Oc2nc3ccccn3c(=O)c2/C=C(\C#N)C(=O)NC2CCS(=O)(=O)C2)cc1 (centres undefined) | 4.2 | -4 | 4 | -1 | 10 | -35 | 5759
CCOC(=O)N1CCN(c2ccc(Cl)cc2)CC1 | 4.0 | 1 | 6 | 18 | 17 | -10 | 2012
O=C(CCCN1C(=O)c2ccccc2C1=O)NCc1ccc(F)cc1 | -0.3 | 4 | 0 | 7 | 2 | -25 | 3795
COc1ccc(C=NNC(=O)c2ccccc2Br)cc1COc1ccccc1 | -3.8 | nt | -1 | -10 | -3 | nt | nt
CCN(CC(=O)Nc1ccc(NC(C)=O)cc1)C(=O)c1ccc2c(c1)OCCO2 | 2.7 | nt | 9 | 5 | -5 | -9 | 6156
Cc1cc(C)c(C#N)c(N2CCCC2)n1 | 7.2 | 5 | 1 | 20 | 6 | -23 | 8273
O=S(=O)(Cc1ccccc1)N1CCNCC1 | 5.0 | 5 | 2 | 2 | -6 | 0 | 3384
CCOc1ccc(C(C(=O)NCC2CCCO2)N(Cc2cccc(OC)c2)C(=O)c2snc(C(N)=O)c2N)cc1 (centres undefined) | 9.8 | 6 | 11 | 11 | -1 | -8 | 3076
CCN(CC)CCCCCC(=O)Nc1ccccc1C(=O)Nc1ccccc1 | 2.6 | -11 | 6 | 5 | 3 | -16 | 4028
FC(F)(F)c1cc(-c2cccs2)nc2cc(-c3cccs3)nn12 | 0.2 | 3 | -18 | -10 | -5 | -21 | 6222
O=C(NNC(=S)Nc1ccc(F)c(Cl)c1)C1CC1 | -0.3 | 26 | 3 | 13 | 8 | -17 | 4653

Reprinted from the part before: 4 compounds, then new ones.
SMILES | Sa RN4220 lethal | BJeLR lethal | Sa ugtP lethal | Mtb hypoxia inh | Mtb hypoxia inh growth | PrP 5UTR inh | Autofluor counter
CCOc1ccc(C(C(=O)NCC2CCCO2)N(Cc2cccc(OC)c2)C(=O)c2snc(C(N)=O)c2N)cc1 (centres undefined) | 9.8 | 6 | 11 | 11 | -1 | -8 | 3076
CCN(CC)CCCCCC(=O)Nc1ccccc1C(=O)Nc1ccccc1 | 2.6 | -11 | 6 | 5 | 3 | -16 | 4028
FC(F)(F)c1cc(-c2cccs2)nc2cc(-c3cccs3)nn12 | 0.2 | 3 | -18 | -10 | -5 | -21 | 6222
O=C(NNC(=S)Nc1ccc(F)c(Cl)c1)C1CC1 | -0.3 | 26 | 3 | 13 | 8 | -17 | 4653
CC(=O)Nc1cccc(NC(=O)CSc2nc3c(c(=O)n(C)c(=O)n3C)n2C)c1 | 1.0 | 8 | -1 | -9 | -2 | -13 | 5459
CN(CC(=O)Nc1c(Cl)cccc1Cl)C(=O)C1CCN(C(=O)Nc2ccccc2)CC1 | -1.1 | 2 | 9 | 3 | 3 | -10 | nt
Cc1ccc(C(=O)O)cc1N=Nc1c(O)[nH]c(=O)[nH]c1=O | 4.9 | -1 | 0 | 5 | 0 | 6 | 4911
CC(C)(C)c1nnc2sc(SCC(=O)c3cccs3)nn2c1=O | 0.6 | -8 | 1 | nt | nt | -20 | 2789
COC(=O)C(NC(=O)N1CCN(c2cccc(C(F)(F)F)c2)CC1)C(C)C (centres undefined) | 1.9 | nt | -3 | -9 | 12 | nt | nt
O=C1CCCN1c1nccs1 | 3.9 | -9 | 4 | 7 | 0 | -28 | 3655
Cc1cc(C(=O)NCc2cccs2)n(-c2ccccc2)n1 | 1.5 | 1 | 5 | nt | nt | -8 | 6191
CC1(C)Cc2nc3oc4c(SCC(N)=O)ncnc4c3cc2CO1 | 3.1 | -14 | -1 | 9 | 3 | nt | 3201
Cc1c(Cl)cccc1N(CC(=O)O)S(C)(=O)=O | 2.5 | 3 | -2 | -4 | -4 | -8 | 4663
CN(C)CCCNCCCNC(=O)/C(=N\O)c1ccccc1 | nt | -2 | nt | nt | nt | -11 | 4391
COc1cc(OC)cc(C(=O)Nn2cc(C(=O)N3CCN(C)CC3)c3ccccc3c2=O)c1 | -1.8 | -7 | -2 | 2 | 9 | 0 | 8243
O=C(C[C@@H]1C/C=C\CC[C@H](Cc2ccc(F)cc2)C(=O)OC[C@@H](Cc2ccccc2)NC1=O)NCCO | 3.2 | nt | -1 | -10 | 7 | -32 | 3918
O=C(Nc1ccccc1C(=O)N1CCCC1)C1COc2ccccc2O1 (centres undefined) | 4.1 | 1 | 4 | 15 | 9 | -1 | 4157
CCC(CC)C(=O)N1c2ccc(F)cc2CCC1C (centres undefined) | 0.6 | -8 | 2 | nt | nt | -4 | 3495
CN1CCc2cc3c(c4c2C1C(O)c1ccccc1-4)OCO3 (centres undefined) | 14 | nt | 6 | 13 | 26 | nt | nt
O=C(Nc1nc2ccccc2s1)c1cc(-c2ccco2)nc2ccccc12 | -3.9 | -4 | -5 | -3 | 15 | -19 | 2633
Cc1cc(-c2nnc(SCC(=O)Nc3ccc(C)c(C)c3)n2N)n[nH]1 | 4.9 | -7 | 5 | 7 | 8 | -4 | 5078
COc1ccc(OCCCC(=O)NC(C)c2ccccc2)cc1 (centres undefined) | -1.1 | -6 | -3 | -5 | -4 | -2 | 3075
Cc1nc2nc(C)c(CCC(=O)N3CCN(c4ccccn4)CC3)c(C)n2n1 | 3.5 | 8 | 8 | 7 | 5 | -3 | 23157*
COc1ccc(C2=NOC(C(=O)N3CCN(c4ccccc4OC)CC3)C2)cc1 (centres undefined) | -8.9 | 2 | -5 | 4 | 10 | -14 | 5826
COc1ccc(-c2cnnc(N/N=C/c3c(C)nn(-c4ccccc4)c3Cl)n2)cc1 | nt | 17 | nt | nt | nt | -35 | 7177
COCc1cc(=O)[nH]c(N=C(N)Nc2c(F)cccc2F)n1 | 4.6 | nt | 7 | 12 | -2 | nt | nt
Cc1ccc(S(=O)(=O)N2CCC(C(=O)OCC(=O)N3CC(=O)Nc4ccccc43)CC2)cc1 | 0.4 | 10 | -2 | -5 | -1 | 10 | 23140*
O=C(/C=C/c1c[nH]c2ccccc12)c1cccc2ccccc12 | -8.8 | 6 | 6 | 3 | 5 | -8 | 2444
CCC(C)(C)NC(=O)CN(Cc1cccs1)C(=O)C(=O)Nc1ccc2c(c1)OCCO2 | 1.8 | 12 | 0 | -6 | 1 | 2 | 12974
Other compounds follow:
SMILES | Sa RN4220 lethal | BJeLR lethal | Sa ugtP lethal | Mtb hypoxia inh | Mtb hypoxia inh growth | PrP 5UTR inh | Autofluor counter
C=CCNCCOc1c(C)cc(C)cc1Cl | 4.4 | 14 | 1 | 3 | 10 | -13 | 3356
CC(OC(=O)c1ccc(-c2ccc(O)cc2)cc1)C(=O)NC1CCCCC1C (centres undefined) | 1.4 | -4 | 13 | 5 | -4 | -18 | nt
CCN(C(=O)CN1CCN(Cc2ccccc2)CC1)c1c(N)n(Cc2ccccc2)c(=O)[nH]c1=O | -1.1 | 3 | -3 | 14 | 2 | -28 | 3390
Cc1ccc(N2C(=O)CC(C3CCCO3)C2=O)cc1 (centres undefined) | 6.4 | 10 | 10 | 9 | 5 | -18 | 6669
O=C(CSc1nnnn1C1CCCC1)NCc1cccs1 | 2.6 | 5 | 5 | 8 | 5 | -21 | 3302
COc1ccc(C/C(C)=N/NC(=S)Nc2ccc(Cl)cc2)cc1 | nt | -1 | nt | nt | nt | -9 | 4674
Cc1ccc(S(=O)(=O)Nc2cccc(C(=O)N3CCOCC3)c2)cc1 | 0.4 | 2 | 6 | 12 | 1 | -14 | 5794
CC(=O)Nc1ccc(S(=O)(=O)N2CCC(C(=O)N[C@@H](Cc3ccccc3)C(=O)O)CC2)cc1 | 0.4 | 4 | 7 | -5 | -3 | nt | 2811
Cc1ccc(NC(=O)CN(C)S(=O)(=O)c2ccc3c(c2)n(C)c(=O)c(=O)n3C)c(C)c1 | 3.8 | 8 | 5 | 10 | 6 | -9 | 4877
Cc1noc(C)c1S(=O)(=O)N1CCN(S(=O)(=O)c2ccccc2C#N)CC1 | 5.3 | -3 | 12 | 3 | 2 | -17 | 6645
COc1ccc([N+](=O)[O-])cc1NC(=O)C(C)N1CCCC1 (centres undefined) | -0.2 | -7 | 3 | 9 | -5 | -29 | 3852
CCN(CC(=O)NC1CCCC1)S(=O)(=O)c1ccc(Br)cc1 | 0.3 | -2 | 1 | 2 | -4 | -16 | 5984
CCCCCc1nnc(NC(=O)c2ccc(N3CCCC3=O)cc2)s1 | 0.3 | 8 | -17 | 5 | 0 | -23 | 4437
COc1ccc(C(C)=NNC(=O)CNC(=O)c2ccncc2)cc1 | -0.9 | nt | 15 | 8 | 8 | nt | nt
c1ccc(-c2nnsc2-c2nc3ccccc3[nH]2)cc1 | 0.5 | -6 | -2 | 8 | 2 | -23 | 3712
O=C(CN(c1ccc(Br)cc1)S(=O)(=O)c1ccc(Cl)c([N+](=O)[O-])c1)NCCc1ccccc1 | -6.0 | 10 | 8 | 12 | 1 | -12 | 4180
CC(C)(C)C(=O)Cn1c(NCCCl)nc2ccccc21 | 2.4 | 6 | 2 | -10 | -4 | -20 | 4552
Cc1c(N2C(=O)C3C4C=CC(C5CC45)C3C2=O)c(=O)n(-c2ccccc2)n1C (centres undefined) | 1.0 | -5 | 4 | 11 | 10 | -12 | 4459
O=[N+]([O-])c1ccc(SCc2ccco2)cc1N1CCOCC1 | 4.9 | -16 | 5 | 10 | 5 | -19 | 3809
Cc1cc(C)cc(C(=O)NC(CC(N)=O)c2ccc(N3CCCCCC3)c([N+](=O)[O-])c2)c1 (centres undefined) | -0.9 | -11 | 1 | 13 | 11 | -26 | 3928
CCCc1cc(C(=O)NNC(=S)NCc2ccccc2)cs1 | 0.7 | -5 | -8 | 7 | 9 | -22 | 22370*
CCOc1ccc(S(=O)(=O)N2CCC(C(=O)NCCN3CCOCC3)CC2)cc1C | 1.6 | 8 | 6 | -4 | 10 | -5 | 3718
CC1CCC(NC(=O)c2nc(Cn3ccc([N+](=O)[O-])n3)no2)CC1 (centres undefined) | 0.2 | -5 | 2 | -7 | 4 | -12 | 6062
CC1CCCN(CCOc2ccc3ccccc3c2Br)C1 (centres undefined) | -3.1 | nt | 9 | 15 | 4 | -9 | 4349
